# Bioassay records as filed in PubChem BioAssay.
# Mtb hypoxia inh – inhibitors of hypoxia-regulated fluorescent reporter in Mycobacterium tuberculosis; M. tuberculosis hypoxia-regulated fluorescent reporter, fluorescence; fluorescence inhibition, % (test concentration not listed); 0.1% of 300,000 active;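 active = 35 to 45% if threefold the growth effect, above 45% if 1.5-fold the growth effect; inactive = the rest, general growth blockers included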;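 also: wells of about 50 µL received 100 nL stock; 0% = vehicle wells and 100% = reference inhibitor wells; whole bacteria with a GFP reporter of the hypoxia response; strong numbers were not always called active; many hits fall short of the cut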
# BJeLR lethal – BJeLR cell viability loss; BJeLR (HRASV12) viability, CellTiter-Glo ATP luminescence, 48 h; reference of the scale not given here; 0.17% of 300,000 active; inhibition, % (no concentration beside the values); AID 1554;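 active = replicate mean above 50%; inconclusive = above 50% but judged a plate artefact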;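 also: 50 nL library stock added to about 25 µL; numbers are from one replicate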
# RN4220 kill – kills Staphylococcus aureus RN4220; S. aureus RN4220 growth, OD600, 16 h; 0.33% of 330,000 active; inhibition, % (test concentration not listed); AID 1259311;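 active = z-score of -3 or lower and OD600 up to 0.18 on both plates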;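 also: plate controls were untreated cells for no effect and reference antibiotic for full effect; stock transfer was 100 nL into about 80 µL; one replicate is shown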
# PrP 5UTR inh – suppresses PrP 5' UTR mRNA reporter expression | AID 488862 | 0.35% of 340,000 active | inhibition, % (concentration not given with the values) | cell-based PrP 5' UTR mRNA reporter, plate reader;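 active = every replicate at 50% or more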;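 also: 0 = median of the neutral control wells; tested in H4 reporter cells; numbers are from one replicate; inactives centre near -14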
# ugtP null kill – kills S. aureus RN4220 lacking UgtP. S. aureus RN4220 ugtP deletion, OD600 growth, 16 h; some inactives read as strong as hits. growth inhibition, % (concentration not given with the values). 0.54% of 330,000 active. AID 1259309;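 active = z-score under -3 and OD600 up to 0.15 on both plates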;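 also: plate controls were untreated wells for no effect and antibiotic for full effect; wells of about 80 µL received 100 nL stock; the first replicate is given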
# Autofluor counter – flagged as autofluorescent in microsphere protease counterscreen | fluorescence intensity (test concentration not listed) | 3.1% of 360,000 active | compound autofluorescence counterscreen, microsphere flow cytometry; hits give high values;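 active = at least 3 SD above the mean of all compounds, about 16000 in these data; inconclusive = too few beads counted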;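 also: 100 nL of 1 mM stock went into each well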
# Mtb hypoxia inh growth – recorded beside Mtb hypoxia inh, whose call it bears; growth inhibition, %; measured here: M. tuberculosis growth (absorbance);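 0% = vehicle and 100% = reference antibiotic; read after six days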
# Active calls of the source: *; ? = inconclusive; . = no result given. Rows were taken by chance; about 3.9% have a hit in one of these screens.
SMILES,Mtb hypoxia inh,Mtb hypoxia inh growth,BJeLR lethal,RN4220 kill,PrP 5UTR inh,ugtP null kill,Autofluor counter
Cc1nc(/N=C(\N)NC(=O)N2c3ccccc3Sc3ccccc32)nc2ccccc12,.,.,5,.,-19,.,8061
O=C(Nc1ccc(Cl)cc1)Nc1ccccn1,-3,7,3,4.2,-58,-7,3211
COc1cccc(CN(C)C(=O)CCC(=O)c2cc(Br)ccc2OC)c1,0,7,.,5.9,-4,1,3540
CC(=O)Nc1ccc(S(=O)(=O)Nc2ccccn2)cc1,6,4,-2,5.0,-11,-1,4502
Cc1ccc(S(=O)(=O)N2CCN(C(=O)CSc3nnnn3C)C2)cc1,.,.,-3,-2.5,-3,5,2867
COc1ccccc1CCNC(=O)C(=O)NCC1OCCN1S(=O)(=O)c1ccc2c(c1)OCCO2 (centres undefined),-5,1,4,-1.4,-23,-2,5276
O=C(CSc1ccc2ccccc2n1)NN=Cc1ccccc1O,3,-3,.,12,.,-10,.
Cc1ccc(C(=O)Nc2nn(C)c3cccc(F)c23)cc1,18,-4,1,2.6,.,13,.
CCCCN(C(=O)c1ccc(N2C(=O)c3ccccc3C2=O)cc1)c1c(N)n(CC(C)C)c(=O)[nH]c1=O,-2,-4,.,2.6,-31,6,5166
COc1ccc(S(=O)(=O)Cc2ccc(C(=O)NC3CCC(C)CC3)o2)cc1 (centres undefined),1,-2,7,-0.8,-21,-2,4848
C=CCSc1nnc(-c2ccccc2NC(C)=O)c(=O)[nH]1,4,8,-1,0.2,-10,-1,3901
O=C(NN=Cc1cn(Cc2cccc(F)c2)c2ccccc12)c1cc(O)cc(O)c1,14,-9,.,0.5,.,4,.
CCOc1cccc(-c2csc(C3COc4ccccc4O3)n2)c1 (centres undefined),-7,-4,1,2.8,-136,3,9863
O=C(COC(=O)CNS(=O)(=O)c1c(F)cccc1F)NC(=O)NC1CCCCC1,10,-5,.,4.1,-29,7,8534
Cc1cccc(C)c1N1CCN(S(=O)(=O)N(C)C)CC1,-1,8,-5,3.2,-41,10,4562
NC(=O)C1CC(=O)N(c2ccc(OCC(=O)Nc3ccc(F)cc3)cc2)C1 (centres undefined),4,4,.,3.5,-12,7,8854
Cc1cccc(/C=N\NC(=O)c2csnn2)c1,.,.,2,.,-45,.,3595
FC(F)(F)c1nc(NCc2ccccc2)c2nnn(Cc3ccccc3)c2n1,3,6,-4,1.4,-8,2,3729
CCCSc1nnc(-c2c[nH]c3ccccc23)n1CC,-4,-1,-11,23,-11,11,5965
Cc1cc(C(=O)NN=C2CCCC(C)C2)n[nH]1 (centres undefined),-10,-6,.,2.0,.,2,.
O=C(Nc1ccc(-n2cccn2)cc1)C1CCN(Cc2ccsc2)CC1,2,3,0,1.2,-16,6,3762
COc1ccc(/C=N/N2C(=O)CSC2=S)cc1Br,.,.,-8,.,-17,.,2961
COc1ccccc1NC(=O)CN1CCN(c2ccccn2)CC1,1,2,-6,6.1,-1,12,20530*
COc1ccccc1C(c1nnnn1CC1CCCO1)N1CCC(C(N)=O)CC1 (centres undefined),.,.,6,1.7,6,2,3044
Cn1nc(-c2ccc(Cl)cc2)c2cc(C(=O)N3CCN(c4ccccc4)CC3)sc21,.,.,0,2.1,0,-11,5349
CC(=O)Nc1ccc(S(=O)(=O)NCC(=O)OCC(=O)c2ccc[nH]2)cc1,9,3,.,5.0,-22,6,3615
CCN(CC(=O)Nc1c(F)cccc1F)C(=O)CCCOc1ccc(OC)cc1,-2,4,4,3.9,-5,-1,6157
COc1ccc(-c2csc3nc(-c4ccccc4)oc(=O)c23)cc1OC,3,0,-5,0.7,-26,4,4847
Cc1ccc(NS(=O)(=O)c2ccc(CCC(=O)NCc3ccccn3)cc2)cc1,0,8,-1,2.7,-17,-4,2652
COc1ccc(/C=C(\C#N)C(=O)NCc2cccs2)cc1OC,10,-2,2,6.3,-23,0,2141
O=C(NCCCN1CCOCC1)c1ccc(Sc2ccccc2Cl)c([N+](=O)[O-])c1,-5,3,10,5.4,-21,15,2085
Cc1ccc(S(=O)(=O)CCC(=O)OCC(=O)N(C)c2ccccc2)cc1,-10,0,.,5.2,-23,4,4868
CCc1nnc(NC(=O)CN2C(=O)/C(=C/c3ccc(OC)c(OC)c3)SC2=S)s1,6,9,-22,10,.,3,.
CCOC(=O)N(C)c1ccc(C(O)(C(=O)OCC)C(F)(F)F)cc1 (centres undefined),-3,9,4,4.3,-13,2,22785*
Cc1cc(C)cc(Nc2nc3c(S(=O)(=O)c4ccccc4)nnn3c3ccccc23)c1,4,-3,.,1.5,-11,9,2465
O=C(CSC(=S)N1CCCC1)Nc1cc2c(cc1Br)OCCO2,10,7,0,3.0,-11,1,5327
CC(C)(C)[C@H]1C=C(C(=O)NCc2ccccc2)O[C@@H](OCc2ccc(CO)cc2)C1,.,.,2,.,-7,.,3954
Cc1cc(C(=O)NN=Cc2ccncc2)c2ccccc2n1,13,3,.,1.3,.,3,.
CC(C)(C)OC(=O)N1CCC(CNC(=O)c2cccs2)CC1,17,3,1,2.9,-26,0,4545
CCOC(=O)N1CCN(C(=O)c2nc3ccccc3s2)CC1,.,.,-1,5.8,-17,4,4166
COc1cccc(C(=O)NNC(=O)c2ccc3ccccc3c2O)c1,-4,-7,3,0.7,-27,0,5681
O=C(Cn1ccccc1=O)NCc1ccc(F)cc1,-7,-2,-14,1.3,-3,6,3001
O=C(CSCc1c(Cl)cccc1Cl)Nc1ccccc1-c1ccccc1,8,-1,11,17,9,4,8990
C#CC[N+]1(CC#Cc2ccc(C#CC[N+]3(CC#C)CCOCC3)cc2)CCOCC1,.,.,18,9.8,-6,-2,2994
O=C(CNC(=O)c1ccccc1C(F)(F)F)NN=Cc1cccs1,4,-11,.,1.5,.,1,.
Cc1cccc(C(=O)Nc2nc3ccc(S(C)(=O)=O)cc3s2)c1,4,4,2,-4.4,-57,3,3913
Cc1cc(C)c(O)c(CN(C)Cc2cc(Cl)cc(Cl)c2O)c1,2,10,.,100*,10,86*,2863
Cc1ccc(-c2nnc(N(C)C(=O)C3CCCO3)s2)cn1 (centres undefined),11,14,-4,5.5,-25,3,4107
CC(=O)c1ccc(NC(=O)CSc2nnc(-c3ccncc3)o2)cc1,-1,-2,6,0.3,-11,3,.
CCn1c(C)cc(=O)cc1-c1ccc(Cl)cc1,7,7,-4,-1.3,-23,3,4310
Cc1c(C(=O)N/N=C/c2ccc(N3CCOCC3)cc2)nc2ccccn12,.,.,-4,.,-8,.,3471
O=C(CN(Cc1ccccc1Cl)C(=O)c1csnn1)NCc1ccc2c(c1)OCO2,-7,2,-1,-3.7,-9,1,5985
Cc1cc(C)n(CCC(=O)NN=Cc2c(O)ccc3ccccc23)n1,1,-3,.,10,.,4,.
Cc1ccc(NNC(=O)CCc2ccccc2)c(C)c1,5,8,-14,0.4,-7,6,6115
COc1ccc(CCNC(=O)COC(=O)c2ccc(C)s2)cc1,12,-4,.,3.8,-21,5,4055
CCc1ccc(NC(=O)Nc2cccs2)cc1,6,-6,1,-11,-105,-9,3274
CC1CN=C(Nc2ccc(F)c(Cl)c2)S1 (centres undefined),14,-4,-8,3.4,-34,8,3823
O=C(CCC1CCCN(C(=O)CC2=CCCCC2)C1)N1CCN(c2ccccn2)CC1 (centres undefined),11,0,-8,1.4,-13,9,3940
Cc1cccc(NC(=O)CCC(=O)N2CCOCC2)n1,-2,-2,.,3.8,5,5,6574
CC(C)(C)N(Cc1ccccc1)C(=O)COC(=O)c1ccccc1SCC(=O)N1CCCC1,10,4,-8,5.0,-27,6,4619

# Copied from the entries so far (13 entries):
SMILES,Mtb hypoxia inh,Mtb hypoxia inh growth,BJeLR lethal,RN4220 kill,PrP 5UTR inh,ugtP null kill,Autofluor counter
Cc1cc(C)c(O)c(CN(C)Cc2cc(Cl)cc(Cl)c2O)c1,2,10,.,100*,10,86*,2863
Cc1ccc(-c2nnc(N(C)C(=O)C3CCCO3)s2)cn1 (centres undefined),11,14,-4,5.5,-25,3,4107
CC(=O)c1ccc(NC(=O)CSc2nnc(-c3ccncc3)o2)cc1,-1,-2,6,0.3,-11,3,.
CCn1c(C)cc(=O)cc1-c1ccc(Cl)cc1,7,7,-4,-1.3,-23,3,4310
Cc1c(C(=O)N/N=C/c2ccc(N3CCOCC3)cc2)nc2ccccn12,.,.,-4,.,-8,.,3471
O=C(CN(Cc1ccccc1Cl)C(=O)c1csnn1)NCc1ccc2c(c1)OCO2,-7,2,-1,-3.7,-9,1,5985
Cc1cc(C)n(CCC(=O)NN=Cc2c(O)ccc3ccccc23)n1,1,-3,.,10,.,4,.
Cc1ccc(NNC(=O)CCc2ccccc2)c(C)c1,5,8,-14,0.4,-7,6,6115
COc1ccc(CCNC(=O)COC(=O)c2ccc(C)s2)cc1,12,-4,.,3.8,-21,5,4055
CCc1ccc(NC(=O)Nc2cccs2)cc1,6,-6,1,-11,-105,-9,3274
CC1CN=C(Nc2ccc(F)c(Cl)c2)S1 (centres undefined),14,-4,-8,3.4,-34,8,3823
O=C(CCC1CCCN(C(=O)CC2=CCCCC2)C1)N1CCN(c2ccccn2)CC1 (centres undefined),11,0,-8,1.4,-13,9,3940
Cc1cccc(NC(=O)CCC(=O)N2CCOCC2)n1,-2,-2,.,3.8,5,5,6574

# Continued:
SMILES,Mtb hypoxia inh,Mtb hypoxia inh growth,BJeLR lethal,RN4220 kill,PrP 5UTR inh,ugtP null kill,Autofluor counter
CCOC(=O)c1ccc(NC(=O)CSc2nc(C)nc3c2c(=O)n(C)c(=O)n3C)cc1,-8,-4,-1,22,-6,18,6124
O=C(Cc1c[nH]c2ccccc12)OCC(=O)c1ccccc1,2,-2,-5,-3.9,-9,3,2474
Cc1ccc(NC(=O)CCCn2nc(C)c3c(C)n(-c4ccccc4)nc3c2=O)c(Cl)c1,0,-2,7,3.3,-16,5,7294
Cc1cccc(OCC(=O)NCC2CCCO2)c1C (centres undefined),11,5,-2,4.7,-33,-1,2669
CCOC(=O)Cc1c(C)c2c(O)cc(O)cc2oc1=O,-7,4,6,4.1,1,1,10876
CCOc1cc(NS(=O)(=O)c2ccc(NC(C)=O)cc2)c(OCC)cc1NC(=O)C(C)C,3,13,14,3.0,-15,-2,20625*
COc1ccccc1C(=O)Nc1ccc2c(c1)OCO2,6,19,-8,4.2,-150,-3,23284*
CCOC(=O)COc1coc(CN2CCN(c3ccccc3)CC2)cc1=O,13,1,10,2.7,-4,11,4735
O=C(CCl)Nc1ccc(N2CCCCCC2)cc1,15,17,-2,13,-5,4,1902
CC[C@]12c3[nH]c4ccc(Cl)cc4c3CCN1C(=O)[C@@H](CC(=O)NCc1cccc(C(F)(F)F)c1)C[C@@H]2C(=O)N1CCN(C(=O)c2ccco2)CC1,1,8,.,-5.9,-10,-12,3400
CN(CC(=O)Nc1c(Cl)cccc1Cl)C(=O)CCCN1C(=O)c2ccccc2C1=O,-4,16,-4,0.2,-10,0,6337
O=C(COc1cccnc1[N+](=O)[O-])Nc1ccc(Cl)c(S(=O)(=O)N2CCOCC2)c1,19,9,-3,2.4,-2,-5,4815
CC1(C)Cc2cccc(OCC(=O)Nc3ccc(OCC(N)=O)cc3)c2O1,5,4,6,1.8,-8,2,4736
Nc1nc(NCCc2ccccc2)nc(NCc2ccccc2)c1[N+](=O)[O-],-8,-8,13,-4.6,-1,-22,2926
Cc1cccc(C)c1-n1c(C)cc(C=NNC(N)=S)c1C,14,12,.,10,.,4,.
CN1CCN(C2CCN(c3cccc(Cl)c3)CC2)CC1CCO (centres undefined),6,4,-3,1.8,-19,5,3886
CC(=O)NN1C(=O)c2ccc(Oc3cccc([N+](=O)[O-])c3)cc2C1=O,17,2,-37,4.0,-16,11,12657
COc1ccc(NS(=O)(=O)c2cc(N/C(=N\S(=O)(=O)c3ccccc3)c3ccc(F)cc3)ccc2Cl)cc1,.,.,-12,.,-11,.,9592
O=C(CNc1cccc(S(=O)(=O)N2CCCC2)c1)Nc1ccc(F)c(F)c1,1,-1,11,-2.1,-26,-4,?
Cn1c(=O)[nH]c(=O)c2c1nc(CN1CCN(c3ccc(F)cc3)CC1)n2CCc1ccccc1,8,7,11,7.7,-52,17,8253
